From PubChem
YB-1 expression: inhibitors of YB-1 gene expression, primary screen, cell-based, fluorescence; U2OS, qRT-PCR YB-1 vs CDIP delta delta Cp, 16 h; active compounds read high; zero = DMSO, each unit about twofold; delta delta Cp (YB-1 minus CDIP) (test concentration not listed); 0.37% of 30,000 active;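 active = delta delta Cp rounded down to an integer at or above 3, about 3 SD of DMSO wells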;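 note: higher means less YB-1 transcript or more CDIP transcript relative to DMSO; stock transfer was 100 nL into about 100 µL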
MITF inhib: inhibitors of MITF, primary screen, MITF inhibitor project, cell-based, luminescence; 0.28% of 37,000 active; inhibition, % (test concentration not listed); TRPM1 promoter luciferase, 24 h;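 active = most replicates at 85% or more, or half of them and the mean; inconclusive = half reach 85% but not the mean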;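 note: human melanocyte line stably carrying TRPM1 promoter luciferase reporter; 0% = vehicle wells and 100% = a positive control; the first replicate is given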
Shh pathway inh: Hedgehog pathway signaling inhibitors, primary screen, luminescence, Shh-LIGHT2 cells, Gli-luciferase; Shh-LIGHT2 Gli-luciferase reporter, 30 h; inhibition, % (test concentration not listed); 2.1% of 22,000 active; AID 2313, 2010;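 active = replicate mean of 65% or more; inconclusive = mean lower but half the replicates past it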;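 note: pathway switched on by Shh-conditioned medium diluted 1 in 25 in low serum; 100 nL library stock added to about 40 µL; 0% = median of neutral wells and 100% = positive control level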
PD-1 reversal: activators reversing PD-1 mediated T-cell inhibition, primary screen, luminescence, primary human CD4 T cells, PD-L1 beads; activation, % (no concentration beside the values); CellTiter-Glo 96 h; 29,000 tested, under 10 active;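 active = replicate mean of 50% or more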;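 note: 0% = median vehicle wells and 100% = positive control; 100 nL library stock added to about 50 µL; numbers are from one replicate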
An asterisk follows results filed as active; ? = inconclusive; nt = not tested or not shown. Not all compounds are listed. The share of hits here may be higher or lower than overall.

nr	smiles	YB-1 expression	MITF inhib
1	C[C@@H]1CN([C@H](C)CO)C(=O)c2cc(N(C)C)ccc2O[C@@H]1CN(C)C(=O)Nc1ccc(C(F)(F)F)cc1	-0.391	4.8
2	C[C@H](CO)N1C[C@H](C)[C@@H](CN(C)S(=O)(=O)c2cn(C)cn2)Oc2ccc(NC(=O)NC3CCCCC3)cc2C1=O	-0.295	8.8
3	C[C@H](CO)N1C[C@H](C)[C@H](CN(C)Cc2ccncc2)Oc2ccc(NC(=O)CCCCCC(=O)Nc3ccccc3N)cc2CC1=O	0.119	-13.9
4	NC(=O)CSc1nnc(-c2ccncc2)n1-c1ccc(Br)cc1	nt	-5.0
5	C[C@@H]1CN([C@@H](C)CO)C(=O)c2cc(NC(=O)Cc3cn(C)c4ccccc34)ccc2O[C@@H]1CN(C)S(=O)(=O)c1ccccc1	-0.401	13.7
6	O=C(CSc1nc(-c2ccccc2)cc(C(F)(F)F)n1)Nc1ccc2c(c1)CCC2	nt	-28.2
7	C[C@H](CO)N1C[C@H](C)[C@H](CN(C)CC2CCCCC2)Oc2ccc(NC(=O)Nc3ccc(F)cc3)cc2C1=O	-0.133	-3.3
8	Cc1ccc(S(=O)(=O)N(C)Cc2nc(-c3ccc(Br)cc3)no2)cc1	nt	20.8

nr	Shh pathway inh	PD-1 reversal
1	-2.4	1.5
2	5.9	nt
3	nt	-0.4
4	nt	1.5
5	13.7	-2.1
6	nt	-0.7
7	nt	nt
8	nt	1.6

Ordered by number of heavy atoms (high to low): some entries from above
nr	smiles	YB-1 expression	MITF inhib
3	C[C@H](CO)N1C[C@H](C)[C@H](CN(C)Cc2ccncc2)Oc2ccc(NC(=O)CCCCCC(=O)Nc3ccccc3N)cc2CC1=O	0.119	-13.9
7	C[C@H](CO)N1C[C@H](C)[C@H](CN(C)CC2CCCCC2)Oc2ccc(NC(=O)Nc3ccc(F)cc3)cc2C1=O	-0.133	-3.3
4	NC(=O)CSc1nnc(-c2ccncc2)n1-c1ccc(Br)cc1	nt	-5.0

nr	Shh pathway inh	PD-1 reversal
3	nt	-0.4
7	nt	nt
4	nt	1.5

Further results follow:
nr	smiles	YB-1 expression	MITF inhib
9	CC(C)NC(=O)N(C)C[C@@H]1Oc2c(NS(=O)(=O)c3cn(C)cn3)cccc2C(=O)N([C@H](C)CO)C[C@H]1C	-0.164	-4.7
10	CCNc1nc(NCc2ccccc2)nc(Oc2ccc(=O)[nH]n2)n1	nt	-0.1
11	CCc1ccc(NC(=O)CSc2ncnc3sc4c(c23)CCC(C)C4)cc1 (stereo not drawn)	nt	-5.2
12	Cc1nnc(SCc2ccc(CSc3nnc(C)c(=O)[nH]3)cc2)[nH]c1=O	nt	-5.4
13	C[C@@H]1CN([C@@H](C)CO)C(=O)c2cccc(NS(=O)(=O)c3cccs3)c2O[C@H]1CN(C)C(=O)Nc1ccc2c(c1)OCO2	-0.111	-3.4
14	Cc1ccc(S(=O)(=O)N(C)C[C@H]2Oc3c(NC(=O)c4cnccn4)cccc3C(=O)N([C@@H](C)CO)C[C@@H]2C)cc1	-0.125	-28.8
15	COc1ccc(S(=O)(=O)N(C)C[C@H]2Oc3ccc(NC(=O)Nc4ccc(F)cc4)cc3C(=O)N([C@@H](C)CO)C[C@H]2C)cc1	0.124	13.5
16	O=C(Oc1ccc([C@@H]2Oc3cc(O)cc(O)c3C[C@H]2O)cc1O)c1cc(O)c(O)c(O)c1	0.162	nt

nr	Shh pathway inh	PD-1 reversal
9	3.6	-0.4
10	nt	-0.3
11	nt	3.4
12	nt	0.6
13	-20.6	3.0
14	26.9	nt
15	10.8	0.6
16	-13.5	nt

Going on with the list:
nr	smiles	YB-1 expression	MITF inhib
17	N/C(=N/C(=O)N1CCOCC1)c1ccccc1	0.163	-15.0
18	C[C@@H]1CN([C@H](C)CO)C(=O)Cc2cc(NC(=O)Nc3ccc(C(F)(F)F)cc3)ccc2O[C@@H]1CN(C)S(=O)(=O)c1ccc(F)cc1	0.0518	11.7
19	O=C(NCc1ccccn1)c1cc2nc(-c3ccccc3)cc(-c3ccccc3)n2n1	nt	-9.8
20	C[C@@H]1CN([C@H](C)CO)C(=O)c2cccc(NC(=O)NC3CCCCC3)c2O[C@@H]1CN(C)C	-0.316	3.5
21	COc1ccc(C)cc1NC(=O)C1CCCN(S(=O)(=O)c2ccc(C)cc2)C1 (stereo not drawn)	nt	6.1
22	CC(C)c1ccc(C2C(C#N)=C(N)C(C#N)(C#N)C3=CCN(C)CC32)cc1 (stereo not drawn)	-0.743	13.9
23	C[C@@H]1CCCCO[C@@H](CN(C)S(=O)(=O)c2ccc(F)cc2)[C@@H](C)CN([C@H](C)CO)C(=O)c2cc(NS(=O)(=O)c3cn(C)cn3)ccc2O1	-0.102	6.2
24	C[C@@H]1CN([C@H](C)CO)C(=O)c2cc(NC(=O)CCCCCC(=O)Nc3ccccc3N)ccc2O[C@@H]1CN(C)S(C)(=O)=O	-0.338	-10.5

nr	Shh pathway inh	PD-1 reversal
17	-11.9	2.7
18	17.6	-0.9
19	nt	-8.6
20	-7.5	-0.5
21	nt	-1.2
22	74.1*	-2.9
23	27.2	3.5
24	nt	1.0

Following part:
nr	smiles	YB-1 expression	MITF inhib
25	Cc1noc(C)c1S(=O)(=O)Nc1ccc2c(c1)C(=O)N([C@H](C)CO)C[C@H](C)[C@H](CN(C)Cc1ccc(C(=O)O)cc1)O2	0.3	2.1
26	CCOc1cc(N2CCOCC2)c(OCC)cc1NS(=O)(=O)CC	0.271	-12.2
27	CCCc1nc2c([nH]1)C(c1cccc(O)c1)C(C#N)=C(N)O2 (stereo not drawn)	-0.203	28.0
28	C[C@@H]1CN([C@H](C)CO)C(=O)c2cccc(NC(=O)Nc3ccc(F)cc3)c2O[C@@H]1CN(C)S(=O)(=O)c1cn(C)cn1	0.467	1.0
29	C[C@@H]1CN([C@@H](C)CO)C(=O)c2cccc(NC(=O)c3ccncc3)c2O[C@H]1CN(C)Cc1ccc(C(F)(F)F)cc1	-0.12	-4.2
30	COc1ccc(C2CC(=O)c3c(O)cc(O[C@@H]4O[C@H](CO[C@@H]5O[C@@H](C)[C@H](O)[C@@H](O)[C@H]5O)[C@@H](O)[C@H](O)[C@H]4O)cc3O2)cc1 (stereo partly drawn)	0.0305	-10.2
31	C[C@@H]1CN([C@H](C)CO)C(=O)c2cc(NC(=O)CCN3CCOCC3)ccc2O[C@@H]1CN(C)S(=O)(=O)c1cccs1	-0.473	-3.6
32	COc1ccc(S(=O)(=O)N(C)CC(=O)Nc2ccc(Br)cc2F)cc1	nt	45.8

nr	Shh pathway inh	PD-1 reversal
25	-19.0	0.8
26	nt	-0.2
27	19.8	-2.6
28	12.2	1.2
29	15.3	0.1
30	-30.4	1.1
31	nt	1.9
32	nt	0.9

Whole records as entered above. Screens in order: YB-1 expression	MITF inhib	Shh pathway inh	PD-1 reversal
Results for `C[C@@H]1CN([C@@H](C)CO)C(=O)c2cccc(NC(=O)c3ccncc3)c2O[C@H]1CN(C)Cc1ccc(C(F)(F)F)cc1` : -0.12	-4.2	15.3	0.1
Results for `NC(=O)CSc1nnc(-c2ccncc2)n1-c1ccc(Br)cc1` : nt	-5.0	nt	1.5
Results for `COc1ccc(C)cc1NC(=O)C1CCCN(S(=O)(=O)c2ccc(C)cc2)C1` (stereo not drawn) : nt	6.1	nt	-1.2

The results go on:
nr	smiles	YB-1 expression	MITF inhib
33	COc1ccc(S(=O)(=O)N(C)CC(=O)Nc2ccc(Br)cc2F)cc1OC	nt	12.6
34	C[C@H](CO)N1C[C@H](C)[C@H](CN(C)C(=O)Nc2cccc3ccccc23)Oc2ccc(NC(=O)Cc3ccccc3)cc2CC1=O	-0.0648	5.4
35	CCN(CC)c1cc(-c2cccs2)nc(SCC(=O)c2cccs2)c1C#N	-0.309	-1.1
36	C[C@@H]1CCCCO[C@@H](CN(C)C(=O)Nc2cccc3ccccc23)[C@@H](C)CN([C@H](C)CO)C(=O)c2cc(NC(=O)NC3CCCCC3)ccc2O1	0.0909	2.3
37	C[C@@H]1CCCCO[C@H](CN(C)S(=O)(=O)c2cn(C)cn2)[C@@H](C)CN([C@H](C)CO)C(=O)c2cc(NC(=O)c3ccncc3)ccc2O1	-1.01	-1.9
38	CC(C)NC(=O)N(C)C[C@@H]1Oc2c(cccc2N(C)C)C(=O)N([C@H](C)CO)C[C@@H]1C	0.553	-3.2
39	C[C@H]1CN([C@@H](C)CO)C(=O)Cc2cc(NC(=O)Cc3ccccc3)ccc2O[C@H]1CN(C)Cc1ccc(Cl)c(Cl)c1	0.256	24.2
40	Cc1ccc(S(=O)(=O)N(C)C[C@@H]2OCCCC[C@@H](C)Oc3ccc(NC(=O)CCC(F)(F)F)cc3C(=O)N([C@H](C)CO)C[C@@H]2C)cc1	0.272	6.0

nr	Shh pathway inh	PD-1 reversal
33	nt	-0.2
34	?	0.2
35	49.9	-1.9
36	-10.0	-0.4
37	3.4	1.3
38	3.8	0.8
39	-6.2	-1.5
40	-14.2	-2.9

Following part.
nr	smiles	YB-1 expression	MITF inhib
41	C[C@H](CO)N1C[C@H](C)[C@@H](CN(C)C(=O)Nc2cccc3ccccc23)Oc2c(NS(=O)(=O)c3cccs3)cccc2C1=O	0.274	8.6
42	CC(OC1OC(CO)C(O)C(O)C1O)C1C(O)CC2C3CCC4=CC(=O)CCC4(C)C3CCC21C (stereo not drawn)	-0.461	nt
43	CC(C)NC(=O)Nc1ccc2c(c1)CC(=O)N([C@@H](C)CO)C[C@H](C)[C@H](CN(C)S(=O)(=O)c1ccccc1)O2	-0.637	-8.5
44	C[C@H](CO)N1C[C@H](C)[C@@H](CN(C)S(=O)(=O)c2ccc(Cl)cc2)Oc2c(NC(=O)c3ccc(-c4nccs4)cc3)cccc2C1=O	-0.405	-10.4
45	O=C(Nc1sc2c(c1C(=O)NCc1ccco1)CCCC2)c1ccccc1[N+](=O)[O-]	nt	8.8
46	Cc1ccc(NC(=O)C2C3C=CC(C3)C2C(=O)O)cc1 (stereo not drawn)	-0.773	9.6
47	C[C@H]1CN([C@@H](C)CO)C(=O)Cc2cc(NS(C)(=O)=O)ccc2O[C@@H]1CN(C)C(=O)Nc1ccccc1	0.0839	-3.9
48	Cc1noc(C)c1S(=O)(=O)Nc1ccc2c(c1)C(=O)N([C@H](C)CO)C[C@H](C)[C@@H](CN(C)Cc1ccc(C(=O)Nc3ccccc3N)cc1)O2	0.604	-11.0

nr	Shh pathway inh	PD-1 reversal
41	-6.6	-0.3
42	-47.1	nt
43	nt	0.5
44	34.3	-2.0
45	nt	0.0
46	-27.3	-0.3
47	-11.2	-0.1
48	nt	-1.4

Following part.
nr	smiles	YB-1 expression	MITF inhib
49	C[C@H](CO)N1C[C@H](C)[C@H](CN(C)C(=O)Nc2ccc3c(c2)OCO3)Oc2ccc(NC(=O)Nc3cccc4ccccc34)cc2CC1=O	-0.0607	-13.6
50	CC(C)C(NCCC(O)c1ccc(Br)cc1)C(=O)O (stereo not drawn)	nt	9.0
51	C[C@H]1CN([C@@H](C)CO)C(=O)Cc2cc(NS(=O)(=O)c3ccc(Cl)cc3)ccc2O[C@H]1CN(C)C(=O)Nc1cccc2ccccc12	0.25	-10.8
52	C[C@@H]1CN([C@@H](C)CO)C(=O)c2cccc(NC(=O)CCCCCC(=O)Nc3ccccc3N)c2O[C@@H]1CN(C)CC1CCCCC1	-0.278	8.0
53	Cc1ccc(NC(=O)COc2ccccc2)c(NC(=O)c2cccs2)c1	nt	23.1
54	COc1ccc(CNc2nc(SC)n[nH]2)cc1OC	nt	-29.4
55	C[C@@H]1CN([C@H](C)CO)C(=O)c2cc(NS(=O)(=O)c3ccc(Cl)cc3)ccc2O[C@@H]1CN(C)C(=O)Nc1ccc(F)cc1	0.0369	-1.8
56	COc1ccc(CN(C)C[C@@H]2Oc3ccc(NC(=O)Cc4cn(C)c5ccccc45)cc3CC(=O)N([C@H](C)CO)C[C@@H]2C)cc1	-0.168	4.1

nr	Shh pathway inh	PD-1 reversal
49	59.7	-0.1
50	nt	2.8
51	8.9	2.2
52	nt	0.8
53	nt	0.5
54	nt	1.5
55	-57.3	-2.7
56	nt	0.1

Continuation.
nr	smiles	YB-1 expression	MITF inhib
57	C[C@@H]1CN([C@@H](C)CO)C(=O)Cc2cc(N(C)C)ccc2O[C@@H]1CN(C)C(=O)Nc1ccccc1	0.312	2.0
58	COc1ccc(NC(=O)N(C)C[C@H]2Oc3ccc(NS(C)(=O)=O)cc3CC(=O)N([C@H](C)CO)C[C@H]2C)cc1	0.0256	6.2
59	Cc1cccc(OCC(=O)Nc2cccc(-c3nnc(-c4ccccc4)o3)c2)c1	nt	-89.0
60	CCOC(=O)c1c(NC(=O)C2C3C=CC(C3)C2(C)C(=O)O)sc2c1CCCC2 (stereo not drawn)	nt	-4.4
61	COc1ccccc1NC(=O)CSC1CC(=O)N(c2ccc(F)cc2)C1=O (stereo not drawn)	nt	5.3

nr	Shh pathway inh	PD-1 reversal
57	-10.6	1.3
58	-16.5	-1.5
59	nt	1.0
60	nt	1.9
61	nt	-0.8
